# Source: PubChem
# H5N1 antiviral: MDCK cell protection from H5N1 avian flu; cytopathic effect, luminescence, 72 h; stronger effect = higher value; no value below 0 was filed and about half of the inactive calls have no number; reference of the scale not given here; hit rate 0.07% among 96,000; inhibition, % at 50 µM; in the data active = inhibition above about 25%
# The depositor's hits bear a star; i = inactive. An excerpt; rates above refer to the full screens.
SMILES,H5N1 antiviral
Cc1nn(-c2ccccc2)c(C)c1/C=N\NS(=O)(=O)c1ccc(Cl)cc1,i
O=[n+]1c2c(n([O-])c3c1CCCC3)CCCCC2,0.1
CN(C)CCCN(C(=O)c1cccs1)c1nc(-c2ccccc2)cs1,2.3
COc1cccc(C(c2nnnn2Cc2ccccc2)N2CCN(C3CCCC3)CC2)c1OC (configuration not stated),i
CCN(CC)S(=O)(=O)c1cccc(-c2cn3cc(C)ccc3n2)c1,i
CCn1c(SC(C)C(=O)O)nc2sc3c(c2c1=O)CCC3 (configuration not stated),0.1
Cc1ccc(-n2nnnc2SCC(=O)Nc2nc(-c3ccc(F)cc3)cs2)cc1C,i
O=C(Nc1ccc(N2CCOCC2)cc1)C1CCCCC1,0.6
O=C(C1CCN(S(=O)(=O)N2CCC3(CC2)OCCO3)CC1)N1CCC(Cc2ccccc2)CC1,i
COc1ccc(NC(=O)c2cccc(N3C(=O)NC4CC3(C)Oc3ccccc34)c2)cc1 (configuration not stated),i
Cn1c(-c2sccc2OCc2ccccc2)n[nH]c1=S,i
Cn1c(=O)n(C)c2cc(NC(=O)CCl)ccc21,0.7

# Among those listed so far, 4 contain a carbonyl joined to an NH by a bond outside any ring:
SMILES,H5N1 antiviral
Cc1ccc(-n2nnnc2SCC(=O)Nc2nc(-c3ccc(F)cc3)cs2)cc1C,i
O=C(Nc1ccc(N2CCOCC2)cc1)C1CCCCC1,0.6
COc1ccc(NC(=O)c2cccc(N3C(=O)NC4CC3(C)Oc3ccccc34)c2)cc1 (configuration not stated),i
Cn1c(=O)n(C)c2cc(NC(=O)CCl)ccc21,0.7

# More compounds.
SMILES,H5N1 antiviral
O=C(Cn1c(=O)oc2cc(S(=O)(=O)N3CCCC3)ccc21)N1CCCC1,0.6
CC(C)(C)OC(=O)NNC1CC(=O)N(c2ccccc2F)C1=O (configuration not stated),0.1
COCCNC(=O)Cn1c(=O)n(C)c2ccccc21,i
O=C(NC(Cc1ccccc1)c1ccc2c(c1)OCCCO2)c1ccc(F)cc1 (configuration not stated),0.4
Clc1ccccc1C1=Nn2c(nnc2-c2ccncc2)SC1,9.2
CCC(C)[C@H](NC(=O)OC(C)(C)C)C(=O)N/N=C/C1=Cc2ccccc2OC1 (some centres not stated),2.8
COc1ccc(NC(=O)NCc2ccncc2)c(OC)c1,i
C/C(O)=C(\C#N)c1nnc2n1CCCCC2,i
O=C(O)Cc1ccc(C(=O)c2ccccc2)s1,i
COCC(C)n1c(SCC(=O)N2CCCCC2)nc2ccccc2c1=O (configuration not stated),0.8
Cc1c(C(N)=O)sc(N)c1C(=O)OC(C)C,1.1
CCOC(=O)c1cccc(NC(=O)Cn2cc3c(n2)CCC(C)C3)c1 (configuration not stated),0.2

# In the list so far, these contain a halogen:
SMILES,H5N1 antiviral
Cc1nn(-c2ccccc2)c(C)c1/C=N\NS(=O)(=O)c1ccc(Cl)cc1,i
Cc1ccc(-n2nnnc2SCC(=O)Nc2nc(-c3ccc(F)cc3)cs2)cc1C,i
Cn1c(=O)n(C)c2cc(NC(=O)CCl)ccc21,0.7
CC(C)(C)OC(=O)NNC1CC(=O)N(c2ccccc2F)C1=O (configuration not stated),0.1
O=C(NC(Cc1ccccc1)c1ccc2c(c1)OCCCO2)c1ccc(F)cc1 (configuration not stated),0.4
Clc1ccccc1C1=Nn2c(nnc2-c2ccncc2)SC1,9.2

# The list continues:
SMILES,H5N1 antiviral
Cc1cccc2c(=O)cc(C)n(CC(=O)N3CCOCC3)c12,0.7
CCn1c(=O)n(CC)c2cc(S(=O)(=O)Nc3c(C)cccc3C)ccc21,0.6
CCCn1c(SCC(=O)c2cc(OC)ccc2OC)nnc1C(C)C,0.9
CN(C)S(=O)(=O)c1ccc(Cl)c(C(=O)NCc2ccco2)c1,i
CCOc1ccc(-c2cc(C(=O)O)c3ccccc3n2)cc1,i
O=C(c1ccccc1F)N(Cc1ccc2c(c1)OCO2)Cc1cc2cc3c(cc2n2nnnc12)OCO3,i
Cc1ccc(-c2nc(N/N=C/c3ccccc3[N+](=O)[O-])c3ccccc3n2)cc1,i
CCN(CC)/C(=N/O)NC(=O)NS(=O)(=O)c1ccc(C)cc1,i
CCc1c(O)nc(SCC(=O)N2CCOCC2)n(-c2ccccc2)c1=O,i
COc1cccc(NC(=S)NN2CCN(C)CC2)c1,i
O=C(O)CCCC(=O)Nc1ccc(Br)cc1C(=O)O,i
O=S(=O)(NC1CCCCC1)c1ccc(F)c2ccccc12,1.8

# Ordered by molar mass (lowest first): some entries from above.
SMILES,H5N1 antiviral
COc1cccc(NC(=S)NN2CCN(C)CC2)c1,i
CCOc1ccc(-c2cc(C(=O)O)c3ccccc3n2)cc1,i
CCCn1c(SCC(=O)c2cc(OC)ccc2OC)nnc1C(C)C,0.9
CCn1c(=O)n(CC)c2cc(S(=O)(=O)Nc3c(C)cccc3C)ccc21,0.6

# Additional entries follow.
SMILES,H5N1 antiviral
Cc1cc2c3nonc3ccc2n1-c1ccccc1,0.1
Cc1ccc(-c2nc3ccc(NS(=O)(=O)c4ccccc4)cc3[nH]2)o1,0.1
COc1cccc(OC)c1C(=O)Nc1nc2ccc(S(C)(=O)=O)cc2s1,i
O=C1CSC(c2cccc(F)c2)N1c1ccccc1F (configuration not stated),9.8
Cn1cccc1C(=O)C(=O)Nc1ccccc1,0.1
COC(=O)c1[nH]c2cc(OC)ccc2c1N,i
CCOc1ccccc1NC(=O)CSc1nccn1-c1ccccc1,0.6
COCCN(C(=O)Cc1cccs1)C(C(=O)NCc1ccc(OC)cc1)c1ccc(C)cc1 (configuration not stated),i
COC(=O)c1ccc(OC(=O)c2ccccn2)cc1,i
O=C(C1=C(O)C(=O)N(CCN2CCOCC2)C1c1ccncc1)c1ccco1 (configuration not stated),i
COCc1ccc2oc(C(=O)O)cc2c1,i
O=C(COc1ncnc2sccc12)N1CCN(S(=O)(=O)c2ccc(Cl)cc2)CC1,i
CC(=O)Nc1sc(C)c(C)c1C(=O)OC1CCOC1=O (configuration not stated),i
COCCN1C=C(C(=O)OC)C(c2ccc3c(c2)OCO3)C(C(=O)OC)=C1,0.9
CS(=O)(=O)c1ccc(Sc2nc3ccccc3[nH]2)c([N+](=O)[O-])c1,5.6
O=C(Cc1cc(=O)[nH][nH]1)N/N=C/C(Cl)=C/c1ccccc1,i
O=C(Cc1ccccc1)N/N=C/c1ccc([N+](=O)[O-])s1,i
O=c1c2ccccc2nnn1CSc1nnc(-c2ccco2)o1,2.8
Cc1cc(C)cc(NC(=O)CSCc2cnn(-c3ccccc3)c2-n2cccc2)c1,i
CC(C)(C)C(O)C(Oc1ccc(Cl)cc1)n1cncn1 (configuration not stated),0.9
CC(C)(C)C(=O)OCc1cn(-c2ccc(Cl)cc2)nn1,i
CCn1nnnc1SCC(=O)Nc1nc(-c2cccs2)cs1,2.7
CC(C)n1nc(C(=O)OCC(=O)N(C)C2CCS(=O)(=O)C2)c2ccccc2c1=O (configuration not stated),i
O=C(Nc1cnc2ccccn2c1=O)c1ccc(Cl)cc1,i
Cn1nnc(-c2ccc(OCc3ccccc3F)cc2)n1,i
Cc1cc(=O)c(C(=O)O)cn1Nc1ccc(F)cc1,i
Cc1onc(-c2c(Cl)cccc2Cl)c1C(=O)Nn1cnnc1,0.6
COc1ccc(CN2CCN(C(=O)c3ccco3)CC2)cc1,0.3
N#Cc1cccc(Cn2nnc(-c3ccccc3)n2)c1,3.0
CCOC(=O)N1CCN(C(=O)CN2C(=O)COc3ccc(C)cc32)CC1,0.1
CCCC(=NCC(=O)O)C1=C(O)C(C(=O)OC)C(C)(C)CC1=O (configuration not stated),i
CN=C(C)C1=C(O)C(C(=O)OC)C(C)(C)CC1=O (configuration not stated),i
O=C1N(c2ccc(Cl)c(Cl)c2)CN(Cc2ccccc2)CN1n1cnnc1,i
Cc1ccc(C2CC(=O)Nc3sc(C(N)=O)c(N)c32)cc1 (configuration not stated),i
COc1cccc(N2CCN(C3CC(=O)N(c4ccc(C)c(Cl)c4)C3=O)CC2)c1 (configuration not stated),i
CCc1ccc(NC(=O)Cn2nc(C(F)(F)F)c3c2CCC3)cc1,0.8
Brc1cnc(N2CCCC2)nc1N1CCOCC1,1.9
Cc1sc(NC(=O)c2ccc(OCC(C)C)cc2)c(C(N)=O)c1-c1ccc(Cl)cc1Cl,i
COc1ccc(NS(=O)(=O)c2ccc(NC(=S)NC(=O)CC(C)C)cc2)cc1,1.9
COC(=O)c1cc(-c2ccccc2)on1,i
CCCCOC(=O)CN1C(=O)c2ccc(C(=O)OCCCC)cc2C1=O,i
O=C(OC(C(=O)NCc1cccs1)c1ccccc1Cl)c1ccco1 (configuration not stated),0.4
Cc1cc(NC(=O)CCN2CCC(C(N)=O)CC2)ccc1Br,1.8
CCCn1c(C(=O)OC)cc2c1ccn2-c1ccc(F)cc1,i
COc1ccc(N2CCN(S(=O)(=O)c3cccc4nsnc34)CC2)cc1,1.3
CCOC(=O)C(=O)Nc1nnc(C2CCCCC2)s1,i
COc1ccc(C(=O)CSc2nnc(-c3cnccn3)n2Cc2ccco2)cc1,1.7
CCCc1cc(-n2ccnc2)n2c(nc3ccccc32)c1C#N,i
Cc1cc2nc(-c3ccc(SCc4ccc(C#N)cc4)nc3)[nH]c2cc1C,i
Cc1cc(N)ccc1-n1c(C)ccc1C,1.0
CCc1cc2c(CN3CCN(CCO)CC3)cc(=O)oc2cc1O,0.4
Cc1ccc(SC/C(O)=C(\C#N)c2nc3ccccc3n2C)cc1,i
COc1ccccc1N1CCN(C2CCCC(C)C2)CC1 (configuration not stated),1.2
CC(C)N1C(=S)SC(C)(C)C1NO (configuration not stated),0.2
CCOC(=O)Cn1nc(C)n(-c2ccc(C(C)C)cc2)c1=O,0.9
O=C1c2ccccc2CCC12N=NCC2c1ccccc1 (configuration not stated),i
CCN1c2ccccc2NC2C1C(C(C)=O)C(=O)N2c1ccc(Cl)cc1 (configuration not stated),i
COc1ccc2[nH]c(=O)c(CN(CC3CCCO3)C(=O)Nc3ccccc3OC)cc2c1 (configuration not stated),0.6
Cc1cc(C)c2cc(C#N)c(NCCCNC(=O)CCC(=O)O)nc2c1,i
O=C(C1Cc2ccccc2CN1S(=O)(=O)c1ccc(F)cc1)N1CCOCC1 (configuration not stated),0.7

# The last 3 compounds of the section above come first, to join the parts.
SMILES,H5N1 antiviral
COc1ccc2[nH]c(=O)c(CN(CC3CCCO3)C(=O)Nc3ccccc3OC)cc2c1 (configuration not stated),0.6
Cc1cc(C)c2cc(C#N)c(NCCCNC(=O)CCC(=O)O)nc2c1,i
O=C(C1Cc2ccccc2CN1S(=O)(=O)c1ccc(F)cc1)N1CCOCC1 (configuration not stated),0.7
Nn1cnc2sc3c(c2c1=O)CCC3,1.6
COc1ccc(/C=N/NC(=O)CN2CCS(=O)(=O)CC2)cc1,i
N/C(=N\OC(=O)C1CCCCC1)c1ccccn1,0.5
CCn1c(C(=O)N2CCC(C(=O)NCc3ccc4c(c3)OCO4)CC2)cc2sccc21,i
Cc1ccc(Cn2nnnc2CN2CCC(NC(=O)c3ccccc3F)CC2)cc1,0.3
CCN(CC)CCNc1nc2ccccc2n1C,0.9
Cc1ccccc1C(=O)OCn1nnc2ccccc2c1=O,i
COC(=O)CSC1=C(C#N)C(c2cccc(F)c2)CC(=O)N1 (configuration not stated),i
Cc1ccc(Nc2ncccc2C(=O)NCc2cccs2)c(C)c1,5.0
Cc1oc(/N=C/c2ccc(Cl)cc2Cl)c(C#N)c1C,0.4
C1CCC(n2nnnc2CN2CCCC2)CC1,0.3
Cc1ccc(Cn2c(=O)n(CCC(=O)NCc3ccc4c(c3)OCO4)c(=O)c3ccccc32)cc1,i
COc1ccc(OC)c(-n2c(N)c(C(=O)NCC3CCCO3)c3nc4ccccc4nc32)c1 (configuration not stated),i
O=C(Cn1cnc2ccccc2c1=O)c1c[nH]c2ccccc12,i
Fc1ccc(CSc2nc3ccccc3[nH]2)c2ccccc12,i
COc1cc(OC)cc(C(=O)Nc2ccc(-c3nc4ccccc4o3)c(O)c2)c1,0.1
COc1cc(NC(=O)C2CCCN2S(=O)(=O)c2cccc3cccnc23)cc(OC)c1OC (configuration not stated),i
Cc1c(Br)c([N+](=O)[O-])nn1CC(=O)NCc1cccs1,i
Cc1cc(CCN2CCC(=O)NC2=O)ccc1OC(C)C,0.3
Cc1cccc(-c2nnc(SCC#N)n2Cc2ccccc2)c1,1.0
CN(C)c1ccc(C(=O)Nc2nnc(-c3ccc(Cl)cc3)o2)cc1,0.6
COc1cccc(NC(=O)CN2CCC(C)CC2)c1,i
Cc1cc(C)c(C#N)c(SCC(=O)C(C)(C)C)n1,0.1
Cc1c(C)n(C(=O)CN2CCC(C)CC2)c2ccccc12,i
CCCOC(=O)C1[C@H]2C(=O)N(Cc3ccco3)C[C@]23C=C[C@H]1O3 (some centres not stated),i
COc1cccc(NC2=CC(=O)CC(C)(C)C2)c1,i
CC(=O)N1CCN(c2cc(N3CCc4ccccc4C3)c(F)cc2[N+](=O)[O-])CC1,0.1
CCOC(=O)c1sc(C)c2c1NC(c1ccc(N(C)C)cc1)NC2=O (configuration not stated),0.3
CCOc1ccccc1NC1c2ccccc2C(=O)N1Cc1ccco1 (configuration not stated),i
CCCCn1ccnc1C(=O)c1cccc(S(=O)(=O)N2c3ccccc3CC2C)c1 (configuration not stated),i
CCOC(=O)c1[nH]c2ccc(OCC)cc2c1NC(=O)CN1CCN(c2ccccc2)CC1,1.0
COc1ccc(NC(=O)C2CCCO2)cc1Cl (configuration not stated),0.5
Cc1ccccc1NC(=O)C(NS(=O)(=O)c1ccc2c(c1)c(=O)n(C)c(=O)n2C)c1ccccc1 (configuration not stated),i
Cc1sc2ncnc(OCC(=O)NCC3CCCO3)c2c1C (configuration not stated),i
CCOC(=O)N1CCN(c2c(NC3CCN(Cc4ccccc4)CC3)c(=O)c2=O)CC1,0.7
COC(=O)c1c(O)ccc(Oc2ccccc2)c1C(=O)OC,i
Cc1noc(/C=C/N(C)C)c1S(=O)(=O)N1CCCC(C(=O)NC2CCCCC2C)C1 (configuration not stated),i
OCc1cn(-c2ccccc2)nc1-c1ccc(-c2nn(-c3ccccc3)cc2CO)cc1,i
COc1ccc(C2CC(c3c(-c4ccccc4)c4cc(Cl)ccc4[nH]c3=O)=NN2S(C)(=O)=O)cc1 (configuration not stated),0.6
CC#CCCCC(=O)Nc1ccc(C(=O)O)cc1,0.1
